CtBP-E1A blk: qHTS Assay for Inhibitors of the CtBP/E1A Interaction | CtBP / adenovirus E1A interaction (AlphaScreen) | AlphaScreen GST-E1A/His-CtBP binding, 1536-well; stronger effect = lower value; control for the full effect not named in the record | activity change, % (no concentration beside the values) | 340,000 tested, 0.49% active | AID 651724, 2012; in the data active means activity change below about -65%; inconclusive means about -30% to -65%; inactive means above about -30%; also: % is scaled to controls: 0 for no effect and ±100 for the full control effect; compound concentration not given in the record
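In 5 uL wells, 23 nL compound meets equimolar GST-E1A and His-CtBP (5X stock 125 nM each) for 2 h, 37 °C. Beads (5X, 50 ug/mL) then 1 h, 37 °C, dark.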
PINK1 expr mod: A Quantitative High throughput Screen to Identify Chemical Modulators of PINK1 Expression. 410,000 tested, 0.2% active. PINK1 immunofluorescence, high-content cytometry, 24 h. Potency, µM (top dose mostly 76.6 µM), inactives show at the highest dose activation (PINK1 increase), actives largely listed as activators. AID 624263, 2012; active = well fitted activation curve with a large enough effect; inconclusive = small, poorly fitted or top-dose-only effect; inactive = flat fitted curve, though single readings scatter; cell line not stated here;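 also: potency is read from the fitted curve at half-maximal effect; % of control where 0% means no effect; nearly all actives have a fitted effect of over 65% in size; a mitochondrial uncoupler was the plate control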
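Stable cell line, 250 cells/well, 12 h attachment; compounds pinned at 5 concentrations, 24 h; CCCP control. Fixed with nuclear dye, primary antibodies 12 h at 10 degrees C, secondary plus cell stain; laser-scanning cytometer read.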
TRPML1 blocker: qHTS for Inhibitors of the Human Mucolipin Transient Receptor Potential 1 (TRPML1); AID 624415, 2012; 390,000 tested, 0.02% active; activity change, negative = inhibition, % (concentration not given with the values); Mucolipin-1 (Homo sapiens), Q9GZU1; TRPML1-inducible cells, Ca2+ dye fluorescence, FDSS; stronger effect = lower value; inhibition of EC80 agonist-evoked calcium signal; in the data active means activity change below about -50%; inconclusive means about -30% to -50%; inactive means above about -30%;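 also: stimulus is agonist 54-4 at its EC80 concentration; % is scaled to controls: 0 for no effect and ±100 for the full control effect; compound concentration not given in the record; the text of the record puts the active cut at -80%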
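Calcium fluorescence in TRPML1-DL cells induced overnight with Tet: a 110 s read after compound pin addition, then a 110 s antagonist read after challenge with 54-4 at 4 uM final (EC80).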
D2 agonist: Beta-Arrestin HTS for Positive Allosteric Modulators of the Human D2 Dopamine Receptor: Agonists | DiscoveRx PathHunter D2 beta-arrestin, luminescence, 90 min; 100% = 57 uM dopamine signal | activation, % (test concentration not listed) | 360,000 tested, 0.084% active | AID 624465, 2012; in the data active = activation above about 40%; inconclusive = about 15% to 40%; inactive = below about 15%; also: compound concentration not given in the record; the text of the record calls up to 30% inactive
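DiscoveRx PathHunter D2 beta-arrestin cells (2,100/well) attached overnight, then compound-stimulated 90 min at 37 C in HBSS/10 mM HEPES/0.1% Tween-20 buffer; beta-galactosidase complementation read by luminescence after 1 h at ambient temperature. Dopamine 57 uM final (EC100) as control.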
Six1-Eya2 blk: qHTS Assay for Inhibitors of the Six1/Eya2 Interaction; Homeobox protein SIX1 (Homo sapiens) + Protein phosphatase EYA2 (Homo sapiens), …; 360,000 tested, 0.56% active; activity change, % (no concentration beside the values); AlphaScreen GST-Six1/His-Eya2 binding, biochemical; stronger effect = lower value; control for the full effect not named in the record; AID 651725, 2012; in the data active = activity change below about -65%; inconclusive = about -30% to -65%; inactive = above about -30%; also: % is scaled to controls: 0 for no effect and ±100 for the full control effect; compound concentration not given in the record
Target sequence (O00167 whole entry, looked up): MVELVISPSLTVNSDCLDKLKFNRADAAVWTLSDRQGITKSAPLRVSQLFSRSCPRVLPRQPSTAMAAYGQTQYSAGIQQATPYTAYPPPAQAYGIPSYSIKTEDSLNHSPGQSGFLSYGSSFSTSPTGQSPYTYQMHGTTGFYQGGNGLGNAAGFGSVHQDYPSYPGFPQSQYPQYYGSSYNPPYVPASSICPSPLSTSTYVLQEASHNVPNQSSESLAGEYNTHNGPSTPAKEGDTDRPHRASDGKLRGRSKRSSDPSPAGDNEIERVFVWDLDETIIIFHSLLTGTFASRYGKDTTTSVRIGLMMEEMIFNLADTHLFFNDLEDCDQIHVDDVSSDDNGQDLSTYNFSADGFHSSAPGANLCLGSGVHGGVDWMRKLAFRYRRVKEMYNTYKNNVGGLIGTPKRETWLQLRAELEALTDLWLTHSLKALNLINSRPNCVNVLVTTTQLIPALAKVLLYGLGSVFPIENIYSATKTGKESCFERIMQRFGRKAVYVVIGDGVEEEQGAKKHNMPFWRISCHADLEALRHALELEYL
Target sequence (Q15475 whole entry, looked up): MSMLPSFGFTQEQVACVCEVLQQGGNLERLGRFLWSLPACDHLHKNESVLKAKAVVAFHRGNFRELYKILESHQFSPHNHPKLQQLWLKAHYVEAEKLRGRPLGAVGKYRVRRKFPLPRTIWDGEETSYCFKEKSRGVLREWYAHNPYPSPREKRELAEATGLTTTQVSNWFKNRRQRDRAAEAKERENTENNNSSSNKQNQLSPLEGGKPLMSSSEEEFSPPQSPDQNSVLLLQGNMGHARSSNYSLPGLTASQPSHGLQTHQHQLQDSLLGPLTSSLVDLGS
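Six1/Eya2 binding was read as AlphaScreen signal after compounds were pinned into GST-Six1 plus His-tagged Eya2 (5X stock 250/500 nM) in pH 8.0 Tris/NaCl/TCEP buffer, beads added, then incubated 1 h, 37 C, dark.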
TRPML1 ag: qHTS for Agonists of the Human Mucolipin Transient Receptor Potential 1 (TRPML1) | TRPML1-expressing cells, Ca2+ dye fluorescence, FDSS; host cell line not named in the record; reference of the full effect not given here | 410,000 tested, 0.12% active | activation, % (no concentration beside the values) | Mucolipin-1 (Homo sapiens), Q9GZU1; in the data active = activation above about 50%; inconclusive = about 30% to 50%; inactive = below about 30%; also: 0% is about no effect; the text of the record puts the active cut at 80%
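Agonist activity was taken from a 110 s kinetic Ca2+ dye read on the FDSS after pinning compounds onto TRPML1-DL cells. The cells were seeded at 1,500/well with Tet inducer, incubated about 16 h, then dye-loaded at room temperature.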
The depositor's hits bear a star; ? = inconclusive; nt = not tested or not shown; & = joins results of further samples; [ ] = dose if it differs, or a comment.

SMILES	CtBP-E1A blk	PINK1 expr mod	TRPML1 blocker	D2 agonist	Six1-Eya2 blk	TRPML1 ag
COc1ccc(NC(=O)CSc2nnc(-c3ccccc3F)n2C2CC2)cc1S(N)(=O)=O	4	0.1%	24	-1.5	0	-1.2
CC1Cc2cc(S(=O)(=O)CCC(=O)Nc3ccccc3F)ccc2N1C(=O)C1CC1 (stereo not drawn)	nt	5.4%	9	nt	nt	0.9
CC(C(=O)OCC(=O)Nc1ccc2c(c1)OCO2)N1C(=O)c2ccccc2C1=O (stereo not drawn)	-2	-1.7%	-4	-3.0	-15	0.8
CN(C)CC(O)CN1C(=O)N(CN2C(=O)N(CC(O)CN(C)C)C(=O)C2(C)C)C(C)(C)C1=O (stereo not drawn)	nt	0.3%	13	1.5	2	-0.3
Cc1c(C(=O)NNC(=O)c2csc(N3CCOCC3)n2)oc2ccccc12	2	0.9%	-5	-1.1	-5	0.9
Oc1ccccc1C(=S)N1CCCCC1	5	0.3%	16	-3.3	-4	-0.4
CCC(=O)N1CCc2cc(S(=O)(=O)NCCCN3CCN(Cc4ccccc4)CC3)ccc21	1	-1.2%	3	-7.4	-2	-1.1
O=C(O)Cn1cnc2sc3c(c2c1=O)CCCC3	15	-0.8%	2	-3.3	9	0.5
Cc1ccc2c(CC(=O)N3CCN(S(=O)(=O)c4ccc5c(c4)OCCO5)CC3)coc2c1	0	1.2%	3	-0.4	3	-1.2
O=C(COC(=O)C1(c2ccc(F)cc2)CCCC1)Nc1ncc(C(F)(F)F)cc1Cl	19	0.3%	-9	2.0	22	24
CCCCN(Cc1ccccc1)S(=O)(=O)c1c(N)n(C)c(=O)n(C)c1=O	-3	4.1%	-7	0.6	5	0.2
Fc1ccc(NC(=S)N2CCCC2)cc1Cl	4	0.4%	-21	1.7	1	1.0
c1ccc(COc2ccc(-c3cc4nc(NCc5ccc6c(c5)OCO6)ccn4n3)cc2)cc1	-25	0.8%	nt	9.5	-5	0.2
CCOc1ccc(-c2cc(C(=O)Nc3cccc(C(F)(F)F)c3)[nH]n2)c(C)c1	-5	3.7%	nt	-3.3	3	-0.1
CN(Cc1ccon1)C(=O)c1ccc2nc(Cc3cccc(Cl)c3)oc2c1	0	-1.1%	-15	-1.9	21	0.5
Cc1[nH][nH]c(=O)c1N=Nc1ccc(Cl)cc1	-18	-2.4%	8	-3.0	-16	0.7
CCc1nnc(NC(=O)c2ccncc2)s1	1	3.2%	-14	1.1	2	0.2
Cc1onc(-c2ccccc2)c1C(=O)N/N=C/c1ccccc1OC(C)C	8	1.4%	-11	0.0	1	0.5
CC(C)(C)C(=O)NC(=S)Nc1ccc(C(F)(F)F)cc1	-1	1.8%	-6	-5.6	4	1.4
COc1ccc(-c2cn3nc(N4CCC(C(=O)NCc5cccc(Cl)c5)CC4)sc3n2)cc1	nt	1.1%	1	nt	nt	1.2
CC12C(=O)N(c3nccs3)C(=O)C1C1C=CC2C1 (stereo not drawn)	1	3.5%	-2	2.9	5	-0.2
CC(NC(=O)CCNC(=O)c1ccco1)c1ccc(F)cc1 (stereo not drawn)	6	0.3%	27	0.3	-23	-0.4
O=C(CSc1ncccn1)N/N=C/c1ccc2c(c1)OCO2	-13	-0.2%	22	-6.3	-1	0.0
COc1ccc(CCNC(=O)CN2C(=O)c3ccccc3S2(=O)=O)cc1OC	6	0.4%	-7	3.1	4	0.6
COc1ccc(Cn2nnnc2C(c2cccnc2)N2CCN(c3ccc(O)cc3)CC2)cc1 (stereo not drawn)	-4	2.9%[38.3 µM]	9	11	-2	0.7
COc1ccc(N=c2oc3c(OC)cccc3cc2C(=O)NCc2ccco2)cc1OC	-6	?	12	-3.3	-5	-0.8
O=C1OC(CO)CN1Cc1ccccc1 (stereo not drawn)	-1	-1.6%	8	-4.6	8	-0.4
O=C(O)CCC(=O)Nc1sc2c(c1C(=O)Nc1ccccc1)CCCCC2	0	0.8%&2.2%	-21&-10	3.6	-3	0.9&-0.5
Cc1ccc(OCCNC(=O)C2CC(=O)N(Cc3ccccc3)C2)cc1 (stereo not drawn)	-5	0.5%	-8	0.2	8	1.5
C=C[C@@]1(C)CCC(/C(C)=C/C=C/C(C)(C)O)C[C@@H]1C(=C)C (stereo partly drawn)	-1	3.3%	21	3.0	7	-1.0
CCOc1cc(OCC)c(C(C)=O)cc1OCC	-1	1.1%	24	6.3	-1	0.4
Cc1cccc(NC(=O)c2ccc3c(c2)C(=O)N(Cc2cccnc2)C3=O)c1C	-12	3.1%	31	1.4	2	0.9
O=C(O)c1ccc(NS(=O)(=O)c2ccc3c(c2)C(=O)c2cc(S(=O)(=O)Nc4ccc(C(=O)O)cc4)ccc2-3)cc1	0	3.0%	-2	-2.7	-15	-0.7
O=C(c1ccc(N2CCCC2=O)cc1)N1CCN(c2ccccc2F)CC1	2	-2.0%	14	4.7	3	-0.8
CCC(C(=O)OCC(=O)Nc1ccc(C)c(S(=O)(=O)N2CCOCC2)c1)c1ccccc1 (stereo not drawn)	0	12%	1	-7.9	5	1.7
O=C(C[n+]1cc(-c2ccc(Cl)cc2)n2c1CCC2)N1c2ccccc2Sc2ccccc21	-26	-0.6%	-1	-0.3	-13	-0.7
CCCSc1ccc([C@H]2N[C@@](Cc3ccccc3)(C(=O)OC)[C@H]3C(=O)N(C)C(=O)[C@@H]23)cc1	nt	0.1%	-3	-1.7	-4	0.1
Cc1ccc(C(C)C)c(OCCN2CCc3ccccc3C2)c1	-2	9.8%	-6	-1.0	22	1.7
COc1ccc(C(=O)Nc2ccccc2C(=O)Nc2cc(C)ccn2)cc1	-21	0.0%	-10	11	20	-0.3
C=C1CC[C@H](O)C/C1=C/C=C1\CCC[C@]2(C)[C@@H]([C@H](C)/C=C/[C@H](C)C(C)C)CC[C@@H]12	7	3.3%	2	-1.6	-1	-0.3
O=C(CCNC(=O)c1ccco1)Nc1nc2ccccc2s1	-6	0.2%	9	-0.9	-2	0.2
CC(=O)Nc1cc(-c2ccccc2CN(C)C)cn2c(-c3ccc(F)c(Cl)c3)cnc12	-3	5.9%	nt	-4.0	-20	-0.7
CCc1ccc(NC(=O)C2CCCN(S(=O)(=O)c3ccc(F)cc3)C2)cc1 (stereo not drawn)	nt	-0.1%	30	nt	nt	1.9
S=c1[nH]nc(-c2cc(-c3ccco3)[nH]n2)n1-c1ccccc1	2	2.6%	-13	-2.6	-1	1.1
CCCCOc1ccc(S(=O)(=O)n2nc(C)c(S(=O)(=O)N3CCCCCC3)c2C)cc1	nt	2.2%	8	nt	nt	-0.3
O=C(C1CCC1)N1CCCc2cc(S(=O)(=O)N3CCN(c4cccc(Cl)c4)CC3)ccc21	nt	-1.2%	43	nt	nt	0.6
CC(C)(CC(=O)c1ccccc1)CC(=O)c1ccccc1	3	-0.4%	17	-3.5	4	2.2
CCOC(=O)CC(=O)CSc1nc2ccc(OC)cc2cc1C	-5	-0.1%	44	2.8	8	1.8
COc1ccc(NC(=O)Nc2nnc(-c3ccccc3F)s2)cc1	9	3.9%	12	-0.1	1	0.0
COc1ccc(CN2CCNC(=O)C2CC(=O)NCCN2CCCCC2=O)c(F)c1 (stereo not drawn)	-5	-0.7%	7	-3.1	31	-0.3
CC(NS(C)(=O)=O)C(c1cccs1)N1CCN(c2ccccc2F)CC1 (stereo not drawn)	3	-2.3%[38.3 µM]	1	-2.8	-2	0.1
Cc1cc(C)cc(NC(=S)Nc2cccc3ccccc23)c1	-10	-0.4%	19	-5.9	-3	-0.9
O=C(Cn1cnc2ccccc21)c1ccc(Cl)cc1	-7	-2.2%	7	3.0	3	0.4
COc1nc(-c2ccccc2)ccc1-c1noc(-c2ccco2)n1	2	0.8%	5	-3.4	6	1.9
CC(C)(C)c1nnc2sc(SCC(O)=C(C#N)c3nc4ccccc4[nH]3)nn2c1=O	-14	5.6%	25	1.9	-15	-0.8
COc1cc(-c2nc(S(=O)(=O)c3ccccc3)c(N3CCOCC3)o2)cc(OC)c1OC	-3	1.6%[38.3 µM]	18	-0.9	1	0.2
CCc1ccc(S(=O)(=O)Nc2nnc(N)s2)cc1	-2	0.6%	-4	-1.4	5	0.1
O=C(CN(C1CCCCC1)S(=O)(=O)c1ccccc1)NCc1ccco1	-12	nt	2	-0.8	-10	0.2
CC1=C(c2ccc(Cl)cc2)S(=O)(=O)NC1=NCc1ccc(C)cc1	nt	0.6%	24	nt	nt	2.9
CC(C)n1nc(C(=O)NCc2ccc3c(c2)OCO3)c2ccccc2c1=O	nt	-1.9%	39	-4.7	1	4.6

Some of the entries so far, with two lines to a compound.
The line under a structure holds: CtBP-E1A blk, PINK1 expr mod, TRPML1 blocker, D2 agonist, Six1-Eya2 blk, TRPML1 ag
- CCOc1cc(OCC)c(C(C)=O)cc1OCC
    -1, 1.1%, 24, 6.3, -1, 0.4
- Cc1cccc(NC(=O)c2ccc3c(c2)C(=O)N(Cc2cccnc2)C3=O)c1C
    -12, 3.1%, 31, 1.4, 2, 0.9
- O=C(O)c1ccc(NS(=O)(=O)c2ccc3c(c2)C(=O)c2cc(S(=O)(=O)Nc4ccc(C(=O)O)cc4)ccc2-3)cc1
    0, 3.0%, -2, -2.7, -15, -0.7
- O=C(c1ccc(N2CCCC2=O)cc1)N1CCN(c2ccccc2F)CC1
    2, -2.0%, 14, 4.7, 3, -0.8
- CCC(C(=O)OCC(=O)Nc1ccc(C)c(S(=O)(=O)N2CCOCC2)c1)c1ccccc1 (stereo not drawn)
    0, 12%, 1, -7.9, 5, 1.7

More records.
SMILES	CtBP-E1A blk	PINK1 expr mod	TRPML1 blocker	D2 agonist	Six1-Eya2 blk	TRPML1 ag
COCc1ccc(CN2CCCC(CCC(=O)NCc3ccc(C)o3)C2)o1 (stereo not drawn)	0	1.3%	-12	-2.5	-1	-0.5
O=S(=O)(c1ccc(F)cc1)N1CCN(C(=S)NCc2ccccc2)CC1	0	-0.3%	1	-0.1	-2	0.8
CS(=O)(=O)N(CC(=O)NCC1CCCO1)c1cc(Cl)cc(Cl)c1 (stereo not drawn)	1	1.0%[38.3 µM]	-4	-1.8	3	0.6
CC(C)(C)n1nnnc1C(c1ccnc2ccccc12)N1CCN(C/C=C/c2ccccc2)CC1 (stereo not drawn)	-7	1.3%	nt	-2.4	-21	-0.3
CCC(=O)N1CCc2cc(Br)cc(S(=O)(=O)N3CCCC(C(=O)Nc4ccc(OC)c(Cl)c4)C3)c21 (stereo not drawn)	nt	0.8%	34	nt	nt	-1.1
COc1cccc(NCc2nnc(SCC(=O)NC3CCS(=O)(=O)C3)n2C2CCCCC2)c1 (stereo not drawn)	-24	-2.9%	-15	2.0	2	1.0
